Bioassay records as filed in PubChem BioAssay.
NOMO-1 viab – STK33 inhibitor candidate reducing NOMO-1 cell viability; NOMO-1 AML viability, CellTiter-Glo luminescence, 72 h; inhibition, % (no concentration beside the values); 37,000 compounds, 7.5% hits;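 active means most replicates above 80%; inconclusive means exactly half above 80%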;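 further: wells of about 30 µL received 25 nL stock; 0% = median of vehicle wells and 100% = reference inhibitor level; the first replicate is given; inactives centre near 10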
* = called active by the depositor; ? = inconclusive.

SMILES	NOMO-1 viab
C[C@@H]1CN([C@@H](C)CO)C(=O)c2cc(NC(=O)Nc3ccc4c(c3)OCO4)ccc2O[C@@H]1CN(C)C(=O)Nc1ccc(C(F)(F)F)cc1	93.4*
Cc1noc(C)c1NC(=O)Nc1ccc2c(c1)C(=O)N([C@@H](C)CO)C[C@@H](C)[C@H](CN(C)C(=O)NC1CCCCC1)O2	22.9
C[C@@H]1CCCCO[C@H](CN(C)S(=O)(=O)c2ccc(F)cc2)[C@@H](C)CN([C@H](C)CO)C(=O)c2cc(NC(=O)NC3CCCCC3)ccc2O1	20.0
Cc1noc(C)c1NC(=O)Nc1cccc2c1O[C@H](CN(C)C(=O)Nc1cccc3ccccc13)[C@H](C)CN([C@H](C)CO)C2=O	3.2
O=[N+]([O-])c1ccccc1C(c1c[nH]c2ccccc12)c1c[nH]c2ccccc12	25.7
COc1ccc(CN(C)C[C@H]2Oc3ccc(NC(=O)Cn4cnnn4)cc3C(=O)N([C@H](C)CO)C[C@H]2C)cc1	18.6
CC(=O)Nc1ccc(NC(=O)CSc2nnc(-c3ccncc3)n2-c2ccc(Cl)cc2)cc1	-35.9
Cc1ccc(S(=O)(=O)Nc2ccc3c(c2)C(=O)N([C@@H](C)CO)C[C@H](C)[C@H](CN(C)C(=O)Nc2ccccc2)O3)cc1	21.6
C[C@H]1CN([C@@H](C)CO)C(=O)c2cc(NC(=O)c3ccncc3)ccc2O[C@H]1CN(C)Cc1ccc(C(F)(F)F)cc1	13.1
CC1(C)CC[C@]2(C(=O)O[C@@H]3O[C@H](CO)[C@@H](O)[C@H](O)[C@H]3O)CC[C@]3(C)C(=CCC4[C@@]5(C)CC[C@H](O[C@@H]6O[C@H](C(=O)O)[C@@H](O[C@@H]7O[C@H](CO)[C@@H](O)[C@H](O)[C@H]7O)[C@H](O)[C@H]6O)C(C)(C)C5CC[C@]43C)C2C1 (some centres not stated)	-4.2
Cn1c(=O)c2c(nc(SCC(=O)O)n2Cc2ccc(F)cc2)n(C)c1=O	17.9
CCc1ccccc1NC(=O)CSc1c(C)n[nH]c1C	18.1
CCn1c(SCC(=O)Nc2cc3oc4ccccc4c3cc2OC)nnc1-c1cccnc1	28.5
Cc1cc(Cl)ccc1OC(C)C(=O)Nc1cccc(-c2nnc(-c3ccccc3)o2)c1 (configuration not stated)	64.8
C[C@H](CO)N1C[C@H](C)[C@@H](CN(C)Cc2ccccc2)Oc2ccc(NC(=O)c3ccncc3)cc2C1=O	16.8
C[C@@H]1CN([C@@H](C)CO)C(=O)c2cc(NS(=O)(=O)c3ccc(F)cc3)ccc2O[C@@H]1CN(C)S(=O)(=O)c1ccc(F)cc1	4.6
Cc1ccc(S(=O)(=O)N(C)C[C@@H]2Oc3ccc(NC(=O)Nc4ccc(C(F)(F)F)cc4)cc3C(=O)N([C@H](C)CO)C[C@H]2C)cc1	97.0*
COc1ccc(NC(=O)N(C)C[C@H]2Oc3c(NC(=O)c4ccc(-c5nccs5)cc4)cccc3C(=O)N([C@H](C)CO)C[C@@H]2C)cc1	0.3
CC(C)NC(=O)N(C)C[C@@H]1OCCCC[C@@H](C)Oc2ccc(N(C)C)cc2C(=O)N([C@H](C)CO)C[C@@H]1C	-1.3
COc1ccc2c(c1)-c1c(ssc1=S)C(C)(C)N2	58.3
CCOc1ccc(NC(=O)CSc2nc(N)c3c4c(sc3n2)COC(C)(C)C4)cc1	-2.1
C[C@H]1CN([C@@H](C)CO)C(=O)c2cc(NC(=O)Nc3ccc(F)cc3)ccc2O[C@H]1CN(C)Cc1ccc(-c2ccccc2)cc1	111.5*
CNC[C@H]1OCCCC[C@@H](C)Oc2ccc(NC(=O)Cc3ccccc3)cc2C(=O)N([C@H](C)CO)C[C@@H]1C	38.7
Cc1noc(C)c1NC(=O)N(C)C[C@@H]1Oc2c(NS(=O)(=O)c3ccccc3)cccc2C(=O)N([C@@H](C)CO)C[C@H]1C	-2.8
C[C@@H]1CN([C@@H](C)CO)C(=O)c2cccc(NC(=O)C3CC3)c2O[C@H]1CN(C)C(=O)Nc1ccccc1	-5.3

Another view of 2 compounds above.
CC(C)NC(=O)N(C)C[C@@H]1OCCCC[C@@H](C)Oc2ccc(N(C)C)cc2C(=O)N([C@H](C)CO)C[C@@H]1C
  NOMO-1 viab: -1.3

COc1ccc2c(c1)-c1c(ssc1=S)C(C)(C)N2
  NOMO-1 viab: 58.3

The list goes on.
SMILES	NOMO-1 viab
Cc1ccc(-c2nc(S(=O)(=O)c3ccc(F)cc3)c(SCC(N)=O)o2)cc1	11.4
COCCNS(=O)(=O)c1ccc(F)c(OC)c1	4.1
C[C@H]1CN([C@@H](C)CO)C(=O)Cc2cc(NC(=O)Nc3cccc4ccccc34)ccc2O[C@H]1CN(C)Cc1ccc(C(=O)O)cc1	1.6
Cc1cccc(OCC(=O)Nc2cccc(C(=O)O)c2C)c1	0.8
C[C@@H]1CN([C@H](C)CO)C(=O)Cc2cc(NC(=O)Nc3ccc4c(c3)OCO4)ccc2O[C@@H]1CN(C)S(=O)(=O)c1ccc(Cl)cc1	-1.5
Cc1noc(C)c1NC(=O)Nc1ccc2c(c1)C(=O)N([C@@H](C)CO)C[C@H](C)[C@@H](CN(C)Cc1ccccc1)O2	-5.8
C[C@@H]1CN([C@H](C)CO)C(=O)c2cccc(NC(=O)Nc3ccc(C(F)(F)F)cc3)c2O[C@H]1CN(C)Cc1ccc2c(c1)OCO2	104.2*
COc1ccc(CCNc2nc(C)cc(C)n2)cc1OC	-17.5
CC(CC(C)O[C@@H]1O[C@H](CO)[C@@H](O)[C@H](O)[C@H]1O)OC(=O)/C=C/c1ccc(O)cc1 (some centres not stated)	9.7
C[C@@H]1CN([C@@H](C)CO)C(=O)c2cc(NS(=O)(=O)c3cccs3)ccc2O[C@H]1CN(C)S(C)(=O)=O	-17.6
Cc1[nH]n(-c2ccccc2)c(=O)c1/C=C1\C=NN=C1c1ccccc1	?
Cc1ccc(S(=O)(=O)Nc2ccc3c(c2)C(=O)N([C@H](C)CO)C[C@H](C)[C@H](CN(C)CC2CC2)O3)cc1	13.7
O=C(NCCCn1ccnc1)c1cnn2c1NC(c1ccccc1)CC2C(F)(F)F (configuration not stated)	-2.7
CC(C)NC(=O)N(C)C[C@H]1Oc2ccc(NS(=O)(=O)c3cccs3)cc2C(=O)N([C@H](C)CO)C[C@H]1C	10.8
C[C@@H]1CN([C@@H](C)CO)C(=O)c2cccc(N(C)C)c2O[C@@H]1CN(C)C(=O)Nc1ccc(F)cc1	-2.9
COc1ccc([N+](=O)[O-])cc1NC(=O)CN(c1cc(C)ccc1C)S(C)(=O)=O	8.4
COc1cc(C)nc(NC(=O)COc2ccc(Cl)cc2C)n1	11.6
Cc1cc(C(=O)c2ccccc2)ccc1OC(=O)COc1ccccc1[N+](=O)[O-]	20.3
Cc1cc(N(CC(=O)Nc2cccc(C)c2C)S(C)(=O)=O)ccc1Br	-3.2
C[C@@H]1CCCCO[C@@H](CN(C)C(=O)CCC(F)(F)F)[C@@H](C)CN([C@H](C)CO)C(=O)c2cc(NS(C)(=O)=O)ccc2O1	9.1
COc1ccc(S(=O)(=O)N(C)C[C@H]2Oc3c(NC(=O)C4CCCCC4)cccc3C(=O)N([C@H](C)CO)C[C@H]2C)cc1	1.4
CC(C)NC(=O)N(C)C[C@H]1Oc2ccc(NS(C)(=O)=O)cc2CC(=O)N([C@@H](C)CO)C[C@@H]1C	-17.4
COc1ccc(NC(=O)N(C)C[C@H]2Oc3ccc(NC(=O)CCN4CCOCC4)cc3CC(=O)N([C@@H](C)CO)C[C@H]2C)cc1	12.3
C[C@H]1CN([C@@H](C)CO)C(=O)c2cccc(NC(=O)c3ccc(-c4nccs4)cc3)c2O[C@H]1CN(C)C	1.5
COc1cc2ccc(=O)oc2c(CC=C(C)C)c1OC	29.7

Reprinted at random: two compounds from above, in no set order.
SMILES	NOMO-1 viab
C[C@H]1CN([C@@H](C)CO)C(=O)Cc2cc(NC(=O)Nc3cccc4ccccc34)ccc2O[C@H]1CN(C)Cc1ccc(C(=O)O)cc1	1.6
COc1cc(C)nc(NC(=O)COc2ccc(Cl)cc2C)n1	11.6

Additional structures follow.
SMILES	NOMO-1 viab
Cc1ccc(S(=O)(=O)N(C)CC(=O)Nc2ccc(C)c(C)c2)cc1	9.9
C[C@@H]1CN([C@H](C)CO)C(=O)c2cccc(NC(=O)CCCCCC(=O)Nc3ccccc3N)c2O[C@@H]1CN(C)Cc1ccc(C(F)(F)F)cc1	114.6*
CCOC(=O)c1[nH]cnc1C(=O)Nc1ccc(C)cc1	0.8
COCCNC(=O)c1ccccc1NC(=O)Nc1ccc(Cl)cc1	-2.3
CCc1cccc(C(C)C)c1NS(=O)(=O)c1ccc(C)cc1	42.5
C[C@H](CO)N1C[C@H](C)[C@H](CN(C)C)Oc2ccc(NS(=O)(=O)c3ccc(F)cc3)cc2CC1=O	5.8
O=C(OC1=CC(=O)c2cccc3cccc1c23)c1ccccc1	71.1
C[C@@H]1CN([C@@H](C)CO)C(=O)Cc2cc(NS(=O)(=O)c3ccc(F)cc3)ccc2O[C@@H]1CN(C)C	6.4
C[C@@H]1CN([C@@H](C)CO)C(=O)c2cc(NC(=O)Cc3ccccc3)ccc2O[C@H]1CN(C)Cc1ccc(C(=O)O)cc1	26.4
CCOC(=O)/C(=N/O)C1=NN=C(N)SC1	-3.3
CNC[C@H]1Oc2ccc(NS(=O)(=O)c3cccs3)cc2C(=O)N([C@@H](C)CO)C[C@@H]1C	-27.5
COC(=O)C1=CO[C@@H](O[C@@H]2O[C@H](CO)[C@@H](O)[C@H](O)[C@H]2O)[C@@H]2[C@@](C)(O)[C@@H](OC(=O)/C=C/c3ccc(O)cc3)C[C@]12O	15.9
COc1cccc(-c2ccc(C#N)c(SCC(=O)Nc3ccccc3Br)n2)c1	-1.6
C[C@H]1CN([C@@H](C)CO)C(=O)c2cccc(NC(=O)Nc3ccc(F)cc3)c2O[C@@H]1CN(C)Cc1ccc(Cl)c(Cl)c1	108.8*
CNC[C@H]1Oc2ccc(NS(=O)(=O)c3ccc(OC)cc3)cc2C(=O)N([C@@H](C)CO)C[C@H]1C	5.3
NC(=O)c1c(NC(=O)CSc2ncn[nH]2)sc2c1CCC2	-0.2
CC(Sc1nc(=O)cc(N)n1-c1ccccc1)C(=O)Nc1cccc(Cl)c1 (configuration not stated)	2.5
Cc1cc(C)c(NC(=O)CN(c2ccc(I)cc2)S(C)(=O)=O)c(C)c1	10.7
Cc1ccc(NC(=O)CSc2nnc(-c3cccs3)n2C)cc1[N+](=O)[O-]	1.3
Cc1ccc(S(=O)(=O)Nc2ccc3c(c2)C(=O)N([C@@H](C)CO)C[C@@H](C)[C@H](CN(C)C(=O)Nc2ccc(F)cc2)O3)cc1	10.0
C[C@@H]1CN([C@@H](C)CO)C(=O)c2cccc(NC(=O)c3ccc(-c4nccs4)cc3)c2O[C@@H]1CN(C)S(=O)(=O)c1ccccc1	30.4
CC(O)c1nc2ccccc2n1CCOc1ccc(Br)cc1 (configuration not stated)	27.4
C[C@@H]1CN([C@@H](C)CO)C(=O)Cc2cc(NC(=O)C3CCCCC3)ccc2O[C@@H]1CN(C)CC1CCCCC1	15.7
Cc1ccc(S(=O)(=O)NC(C)C(=O)O)cc1C (configuration not stated)	10.4
CCSC(=S)NC1CCS(=O)(=O)C1 (configuration not stated)	35.7

An excerpt of these results, with bars between the fields.
Compound | NOMO-1 viab
CCOC(=O)c1[nH]cnc1C(=O)Nc1ccc(C)cc1 | 0.8
COCCNC(=O)c1ccccc1NC(=O)Nc1ccc(Cl)cc1 | -2.3
CCc1cccc(C(C)C)c1NS(=O)(=O)c1ccc(C)cc1 | 42.5
C[C@H](CO)N1C[C@H](C)[C@H](CN(C)C)Oc2ccc(NS(=O)(=O)c3ccc(F)cc3)cc2CC1=O | 5.8

The listing continues.
SMILES	NOMO-1 viab
C[C@@H]1CN([C@H](C)CO)C(=O)c2cc(NC(=O)Nc3cccc4ccccc34)ccc2O[C@H]1CN(C)Cc1ccc(C(F)(F)F)cc1	25.2
Cc1ccc(S(=O)(=O)N(C)C[C@H]2Oc3c(NC(=O)c4ccc(-c5nccs5)cc4)cccc3C(=O)N([C@@H](C)CO)C[C@@H]2C)cc1	7.7
Cc1c(Cl)cccc1NC(=O)CCN1C(=O)c2ccccc2S1(=O)=O	14.6
C[C@@H]1CN([C@@H](C)CO)C(=O)c2cccc(NC(=O)c3nc4ccccc4s3)c2O[C@H]1CN(C)CC1CCCCC1	?
C[C@@H]1CN([C@H](C)CO)C(=O)c2cc(NS(C)(=O)=O)ccc2O[C@@H]1CN(C)S(=O)(=O)c1ccccc1	19.9
Cc1cc[n+](CCOc2ccc(N)cc2)cc1	12.0
COc1ccc(S(=O)(=O)N(C)C[C@@H]2OCCCC[C@@H](C)Oc3ccc(NS(=O)(=O)c4c(C)noc4C)cc3C(=O)N([C@H](C)CO)C[C@@H]2C)cc1	29.2
Cc1nn(CC(O)COc2ccc3c(c2)CCC3)c(C)c1Br (configuration not stated)	95.9*
COc1ccc([N+](=O)[O-])cc1NC(=O)CS(=O)(=O)c1ccc(C)cc1	32.7
COc1cc(C(c2ccc(C)o2)c2ccc(C)o2)c(O)c([N+](=O)[O-])c1	25.4
C[C@H](CO)N1C[C@H](C)[C@H](CN(C)Cc2ccc(Cl)c(Cl)c2)Oc2ccc(NS(=O)(=O)c3cn(C)cn3)cc2C1=O	11.8
CCn1c(SCC(=O)Nc2cc(C)ccc2OC)nnc1-c1ccccc1F	14.1
Cc1noc(C)c1NC(=O)N(C)C[C@@H]1Oc2ccc(NC(=O)CCCN(C)C)cc2C(=O)N([C@@H](C)CO)C[C@H]1C	7.9
Cc1noc(C)c1NC(=O)N(C)C[C@@H]1Oc2ccc(NC(=O)NC(C)C)cc2CC(=O)N([C@H](C)CO)C[C@@H]1C	9.3
C[C@@H]1CN([C@@H](C)CO)C(=O)c2cc(N(C)C)ccc2O[C@H]1CN(C)C(=O)Nc1cccc2ccccc12	23.9
C[C@H]1CN([C@@H](C)CO)C(=O)c2cccc(NS(=O)(=O)c3cn(C)cn3)c2O[C@@H]1CN(C)C(=O)Nc1ccc(F)cc1	7.1
COc1c(Cl)cc(C(=O)Nc2sc3c(c2C(=O)NCc2ccco2)CCCC3)cc1Cl	-14.9

Not all compounds are listed (hit frequency here may not be typical).
